# PV pol inh: inhibitors of poliovirus RNA polymerase binding and polymerization | P03300 | poliovirus polymerase elongation, fluorescence polarization; hits give low values | % elongation, % (compound at 16.7 µg/mL) | hit rate 0.66% among 150,000 | AID 588519; in the data active = % elongation below about 90%; also: some results filed as inactive read as strong as hits
# MbtI inh: inhibitors of Mycobacterium tuberculosis siderophore enzyme MbtI. P9WFX0. inhibition, %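 (about 17 µg/mL by stock and volumes)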. AID 493033. purified MbtI enzyme, fluorescence intensity read-out. hit rate 0.89% among 100,000;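 active = above 50% in both replicates, above 80% if mildly self-fluorescent; inactive = the rest, strongly fluorescent compounds included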;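 also: 0% = mean of negative and 100% = mean of positive controls; one replicate is shown; some compounds called inactive have numbers as strong as hits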
# Target sequence (P9WFX0 whole entry, looked up): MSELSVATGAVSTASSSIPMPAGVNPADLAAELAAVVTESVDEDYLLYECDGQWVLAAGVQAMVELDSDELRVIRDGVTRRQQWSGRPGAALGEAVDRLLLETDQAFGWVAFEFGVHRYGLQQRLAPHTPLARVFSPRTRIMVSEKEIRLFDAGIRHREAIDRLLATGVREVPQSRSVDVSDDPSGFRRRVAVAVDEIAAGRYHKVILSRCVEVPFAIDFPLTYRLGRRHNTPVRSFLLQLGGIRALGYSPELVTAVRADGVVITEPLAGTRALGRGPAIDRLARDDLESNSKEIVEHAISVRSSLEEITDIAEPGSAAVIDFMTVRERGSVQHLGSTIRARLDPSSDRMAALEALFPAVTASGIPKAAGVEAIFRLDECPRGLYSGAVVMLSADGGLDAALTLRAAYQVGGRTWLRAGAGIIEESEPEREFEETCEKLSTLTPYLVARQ
# Mtb MenB inh: inhibitors of Mycobacterium tuberculosis MenB enzyme. P9WNP5. hit rate 0.43% among 100,000. MenB enzyme assay, absorbance read-out; some hits fall short of the stated cut. inhibition, %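 (about 12 µg/mL by stock and volumes)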;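 active = mean of two replicates above 30%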;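 also: 0% = no compound and 100% = wells with inactive enzyme; the first replicate is given; strong numbers were not always called active; inactives centre near -10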
# Target sequence (P9WNP5 whole entry, looked up): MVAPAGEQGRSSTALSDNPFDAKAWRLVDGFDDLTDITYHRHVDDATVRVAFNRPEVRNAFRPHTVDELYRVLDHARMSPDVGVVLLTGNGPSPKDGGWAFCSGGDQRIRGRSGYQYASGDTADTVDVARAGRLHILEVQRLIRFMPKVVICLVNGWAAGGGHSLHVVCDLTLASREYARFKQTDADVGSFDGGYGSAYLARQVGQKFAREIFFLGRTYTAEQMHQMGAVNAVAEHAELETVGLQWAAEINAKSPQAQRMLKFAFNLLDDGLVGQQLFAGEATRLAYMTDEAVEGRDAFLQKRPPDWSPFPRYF
# PV pol inh intensity: recorded beside PV pol inh, whose call it bears; % elongation; measured here: total intensity read-out; formula for this scale not given here;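 total fluorescence in place of polarization; lower means less elongation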
# Active calls of the source: *; i = inactive; / = not tested or not shown; & = joins results of further samples.
# Below each SMILES: PV pol inh	PV pol inh intensity	MbtI inh	Mtb MenB inh
> O=C(N/C(=C\c1ccccc1Cl)C(=O)N1CCOCC1)c1ccccc1
→ 103	108	-4	/
> Cn1ccc(NC(=O)NC(=O)c2c(Cl)cccc2Cl)n1
→ 103	95	7	-18
> CCCN1CCc2c(C)c(C#N)c3nc4ccccc4n3c21
→ 94	114	-7	-2
> COc1ccc(/C=C2\SC(=S)N(CC(=O)Nc3ccccc3)C2=O)cc1
→ 101	104	-3	-15
> O=C(Nc1ccccc1C(F)(F)F)N1CCOc2ccccc21
→ 100	103	-6	15
> O=C(O)c1ccccc1C(=O)N1CCCCC1
→ 104	104	2	-1
> COc1cc(OC)c(C2=NOC(C(=O)NCC3CCCO3)C2)cc1Cl (stereo not drawn)
→ 101	101	-23	-12
> Cc1cc(C(=O)COc2ccccc2C(N)=O)c(C)n1C
→ 101	106	13	-19
> Nc1ccc(S(=O)(=O)Nc2nccs2)cc1
→ 100&100	103&102	-16&-13	1&11
> O=C(c1c[nH]c(=O)n(-c2ccccc2)c1=O)N1CCc2ccccc21
→ 100	103	1	-2
> CCN(CC)S(=O)(=O)c1cccc(-c2nc(=S)[nH][nH]2)c1
→ 108	105	61	-28
> COc1ccc2c(c1)CCC1C2=NN(C(C)=O)C1c1ccccc1F (stereo not drawn)
→ 98	101	i	-12
> CC(C)(C)C(=O)/C(C#N)=c1\s/c(=C\c2ccncc2)c(=O)n1CCCN1CCOCC1
→ 102	108	-5	2
> O=S(=O)(c1ccc(Br)cc1)N1CCNCC1
→ 104	110	/	6
> Cc1ccccc1C(=O)Nc1c(C)[nH]c(=O)[nH]c1=O
→ 106	99	/	0
> O=C(O)CNS(=O)(=O)c1cccc(C(F)(F)F)c1
→ 102	90	-8	-3
> O=C1N(CN(CCc2ccccc2)Cc2ccccc2)c2ccccc2C12OCCCO2
→ 101	103	1	13
> Cc1ccc(C(=O)n2cnc3ccccc32)cc1
→ 104	104	-4	8
> O=C1NC(=O)N(c2ccc3c(c2)OCO3)C(=O)/C1=C/c1ccsc1
→ 99	102	38	-19
> Cn1c(=O)n(C)c2cc3c(cc21)[nH]c(=O)c(=O)n3Cc1ccccc1
→ 101	101	-11	-15
> CCOc1ccc(OCC(O)CNC2CC(C)(C)NC(C)(C)C2)cc1 (stereo not drawn)
→ 103	105	3	-5
> COC(=O)C1Cc2ccccc2CN1Cc1c(O)ccc2ccccc12 (stereo not drawn)
→ 100	96	-86	-31
> CS(=O)(=O)N1CCN(CCc2ccccc2)CC1
→ 101	104	2	-7
> Cc1ccccc1OCc1nc2ccccc2n1C
→ 100	100	10	4
> CN1CCCC(OC(=O)c2cc(F)c(F)c(F)c2F)C1 (stereo not drawn)
→ 99	103	-2	/
> CC1CCCCN1S(=O)(=O)c1ccc(NC(=O)COc2ccc(F)cc2)cc1 (stereo not drawn)
→ 101	101	-25	-33
> CC1CCN(CC(=O)Nc2ccc(F)cc2)CC1
→ 102	99	-6	-71
> O=C1NC(c2ccc(Cl)cc2)c2c1oc1ccccc1c2=O (stereo not drawn)
→ 103	108	2	-25
> N#Cc1ccc(NC(=O)/C=C/c2ccccc2)cc1
→ 99	99	18	-69
> Cc1nnc(SCc2cc(=O)c3c(=O)n(-c4ccccc4)[nH]c3[nH]2)s1
→ 97	101	16	8
> Cc1cc2nc(SCc3ccc(F)cc3)[nH]c2cc1C
→ 100	98	14	7
> CCOc1cc(-n2c(C)ccc2C)c(OCC)cc1N1CCOCC1
→ 108	110	-69	-47
> CC(=O)N1C(Nc2ccc(Cl)cc2)CCN1c1ccccc1 (stereo not drawn)
→ 98	104	-6	-28
> Cc1cccc(-n2c3c(c(=O)[nH]c2=S)CN(CCc2ccccc2)CN3)c1
→ 103	107	19	14
> COC(=O)/C=C1\SC(=NC(=O)c2ccc(OC)cc2)NC1=O
→ 102	95	-3	-10
> CCC(=O)Nc1cccc2cccnc12
→ 102	98	6	-9
> O=C(Nc1ccc(Cl)cc1)c1cnn2c(C(F)F)cc(C3CC3)nc12
→ 101	104	-25	3
> Cn1cc(NC(=O)NCc2ccc3c(c2)OCO3)c2ccccc21
→ 101	105	88	-2
> COc1ccc(OCc2nc3c4c(C)c(C)oc4ncn3n2)cc1
→ 101	104	-2	-19
> O=C(Cc1cn2ccsc2n1)N/N=C/c1c(Cl)cccc1Cl
→ 99	99	-13	-2
> CCNCC(=O)Nc1ccccc1C(F)(F)F
→ 100	107	-9	2
> N#CCCn1c(SCC(=O)N2CCCC2c2ccc3c(c2)OCCCO3)nc2ccccc21 (stereo not drawn)
→ /	/	6	-22
> Cc1cc(C)nc(/N=C(/NC(=O)Cc2ccccc2)N2CCC(C(N)=O)CC2)n1
→ 104	106	0	2
> Cc1ccc(S(=O)(=O)NCc2cccs2)cc1
→ 101	99	-3	-6
> CCOC(=O)c1ccccc1NC(=O)CSc1nc(N)cc(=O)[nH]1
→ 97	103	-6	13
> O=C(COc1cccc[n+]1[O-])N1CCc2ccccc21
→ 99	99	-4	-6
> O=C1C2=C(Nc3ccccc3SC2c2ccccc2F)c2ccccc21 (stereo not drawn)
→ 101	103	17	-71
> Cc1c(C(C)NC(=O)COc2ccc(Br)cc2Cl)cnn1C (stereo not drawn)
→ 100	103	0	-8
> COC(=O)C(C)NC(=O)c1cccnc1Cl (stereo not drawn)
→ 104	105	-9	/
> CSc1n[nH]c(NS(=O)(=O)c2ccc(Cl)cc2)c1-c1ccccn1
→ 108	112	-5	7

# (next part)
# Below each SMILES: PV pol inh	PV pol inh intensity	MbtI inh	Mtb MenB inh
> COc1cc(C)c(C(C)C)cc1S(=O)(=O)N1CCN(c2cccc(Cl)c2)CC1
→ 105	106	-5	1
> CCN1C(=O)/C(=C/N(C(C)=O)c2ccccc2)OC1=S
→ 100	102	-2	-28
> O=C(CSc1ncnc2ccccc12)NC1CCCCC1
→ 102	105	2	-9
> CC(C)N(Cc1ccccc1)S(=O)(=O)c1ccc(-n2cccn2)cc1
→ 99	102	-4	-28
> CC(NC(=O)CC(c1ccccc1)c1ccccc1)c1ccccc1 (stereo not drawn)
→ 107	114	/	-7
> N/C(=N\O)C12CC3CC(CC(C3)C1)C2
→ 99	98	3	-7
> Cc1ccc(C)c(S(=O)(=O)NCC(=O)Nc2nsc(-c3ccccc3)n2)c1
→ 101	104	9	-13
> COC(=O)c1sc(N)c(C#N)c1C
→ 102	96	81	-50
> Oc1cc(O)c2c(c1)O[C@H](c1ccc(O)c(O)c1)[C@H](O)C2
→ 99	97	0	-6
> COc1ccc(/C=C/C(=O)C2C(=O)COC2=O)cc1OC (stereo not drawn)
→ 99	102	-8	-66
> C(=Nc1ccccc1)c1nc(-c2ccccc2)n2ccccc12
→ 104	104	-43	/
> CCn1c2ccccc2c2nnc(NCCc3ccccc3)nc21
→ 103	102	-20	-3
> CC(=O)Oc1ccc(C(=O)Nc2ccccc2NC(=O)c2ccc(OC(C)=O)cc2)cc1
→ 104	105	-17	1
> Cc1c(C(=O)NCc2ccccc2)sc2nc3n(c(=O)c12)CCCC3
→ 103	107	-11	-26
> Cc1cc(N(C(=O)Cn2nnc3ccccc32)C(C(=O)NCC2CCCO2)c2ccc(F)cc2)ccc1-n1cnnn1 (stereo not drawn)
→ 102	104	-4	14
> Cc1ccc(S(=O)(=O)N(c2cc(C)nn2C)S(=O)(=O)c2ccc(C)cc2)cc1
→ 102	100	0	9
> CN(C(=O)C1CCN(c2ncnc3c2nc2n3CCCCC2)CC1)c1ccccc1
→ 103	103	-11	4
> COc1ccc(C(=O)NC(=S)N2CC(C)OC(C)C2)cc1 (stereo not drawn)
→ 101	102	10	-6
> COC[C@H]1OC(=O)c2coc3c2[C@@]1(C)C1=C(C3=O)C2CCC(=O)[C@@]2(C)C[C@H]1OC(C)=O (stereo partly drawn)
→ 102	104	/	-2
> O=C(COc1ccc(C(F)(F)F)cn1)Nc1ccc(C(F)(F)F)cc1
→ 100	98	9	-18
> Cc1nc(SCC(=O)N(C)C2(C#N)CCCCC2)c2ccccc2n1
→ 124	131	-5	-7
> O=C(CCCn1c(=O)c2ccc(Cl)cc2n(CC(=O)c2cccc(Br)c2)c1=O)NCc1ccco1
→ 102	101	-1	-6
> O=C(C(NS(=O)(=O)c1ccc(Br)s1)c1ccccc1)N1CCOCC1 (stereo not drawn)
→ 101	104	3	3
> O=C(Cc1cccc2ccccc12)NN1C(=O)C2C3C=CC(C3)C2C1=O (stereo not drawn)
→ 106	94	/	-17
> O=C(CCSCc1ccccc1)NCc1ccco1
→ 104	101	-7	-42
> COc1ccc2[nH]c3c(=O)n(CCCCC(=O)Nc4ccccc4)c(=S)[nH]c3c2c1
→ 100	97	-6	-36
> Cc1cccc(NC(=S)Nc2c(C(C)C)cccc2C(C)C)c1
→ 103	111	-4	-22
> CC1(C)CC(=O)C=C(NN2CCOCC2)C1
→ 112	103	/	-20
> COc1ccc(C(=O)c2c(NC(C)=O)sc3c2CCN(C(=O)OC(C)(C)C)C3)cc1
→ 102	104	1	-2
> CCc1nc2ccccc2c(C(=O)OCC(=O)N(C)C)c1C
→ 104	108	7	5
> COc1ccccc1Nc1ccc(S(=O)(=O)N2CCCC2)cn1
→ 100	104	-10	-28
> COc1ccc(C(=O)n2nc(-c3cccnc3)nc2N)cc1
→ 102	103	-16	-13
> O=C1NC(c2cccc(Oc3ccccc3)c2)Oc2ccccc21 (stereo not drawn)
→ 103	99	0	/
> O=c1c2ccccc2nnn1CSc1nncs1
→ 103	104	16	-17
> O=C(CC12CC3CC(CC(C3)C1)C2)Nc1ccccc1N1CCOCC1
→ 103	105	-3	0
> COC(=O)c1c(C)[nH]c(C(=O)CN(C)Cc2cccc(OC)c2)c1C
→ 108	107	8	9
> Cc1cc(C)n2c(C#N)c(C#N)nc2n1
→ 102	102	111	-10
> O=S(=O)(Nc1ccccc1O)c1ccccc1
→ 100	103	1	/
> Cc1cccc(NC(=O)c2ncoc2-c2ccccc2Cl)c1C#N
→ 101	102	0	3
> COC(=O)C1=C(C)NC(C)=C(C(=O)OC)C1C(=O)OC(C)C(=O)Nc1ccc(C)cc1 (stereo not drawn)
→ 103	108	5	-32
> Cn1c(=O)n2n(c1=O)C1C=CC2C1
→ 105	106	-11	-5
> CCN(CC)C(=O)CSc1nnc(COc2ccc(Br)cc2)o1
→ 101	104	9	-18
> CC1CCCC(NS(=O)(=O)c2ccc3c(c2)OCCO3)C1C (stereo not drawn)
→ 100	104	-5	-7
> Cc1c(C(=O)Nc2ccc(Cl)cc2)sc(N)c1C(N)=O
→ 95	90	-49	-58
> COC(=O)c1sccc1Oc1ccc(C(F)(F)F)cc1NC(=O)c1ccc(Cl)cc1
→ 103	114	-12	-7
> Cc1cc(C)n(CCCNC(=O)c2ccc(S(=O)(=O)N3CCCCCC3)cc2)n1
→ 102	107	7	-31
> Cc1ccc(C)n1-c1cccc(C(F)(F)F)c1
→ 104	106	-6	/
> CCCN1C(=O)c2[nH]nc(-c3ccccc3)c2C1c1ccccn1 (stereo not drawn)
→ 101	102	0	15
> CN(C)C(CNC(=O)c1cccc(C#N)c1)c1ccco1 (stereo not drawn)
→ 105	108	-8	-6
> COC(=O)Nc1ccc(Br)cn1
→ 104	107	/	-8

# Continued, overlapping the part above by six compounds.
# Below each SMILES: PV pol inh	PV pol inh intensity	MbtI inh	Mtb MenB inh
> COC(=O)c1sccc1Oc1ccc(C(F)(F)F)cc1NC(=O)c1ccc(Cl)cc1
→ 103	114	-12	-7
> Cc1cc(C)n(CCCNC(=O)c2ccc(S(=O)(=O)N3CCCCCC3)cc2)n1
→ 102	107	7	-31
> Cc1ccc(C)n1-c1cccc(C(F)(F)F)c1
→ 104	106	-6	/
> CCCN1C(=O)c2[nH]nc(-c3ccccc3)c2C1c1ccccn1 (stereo not drawn)
→ 101	102	0	15
> CN(C)C(CNC(=O)c1cccc(C#N)c1)c1ccco1 (stereo not drawn)
→ 105	108	-8	-6
> COC(=O)Nc1ccc(Br)cn1
→ 104	107	/	-8
> Cc1cc(C(=O)CSc2nnc(Cc3cccs3)n2CCc2ccccc2)c(C)n1CC1CCCO1 (stereo not drawn)
→ 98	106	3	-27
> CCN(CC)C(=O)Cn1cc(C#N)c2ccccc21
→ 100	87	/	-8
> NS(=O)(=O)c1ccc(N=Cc2ccccc2)cc1
→ 103	97	-7	-7
> COC(=O)c1cccc(C(=O)OC)n1
→ 104	103	-12	-5
> O=C1c2nc3cc(-c4ccccc4)[nH]n3c(=O)c2CN1Cc1ccco1
→ 103	103	-51	13
> O=c1[nH]nc(-c2ccco2)o1
→ 104	107	5	-29
> Cc1ccc2[nH]c(=O)c3cc(C(=O)N(C)c4cccc(Cl)c4)sc3c2c1
→ 98	103	10	-9
> CC1(C)CC(=O)CC(C2(O)C(=O)N(Cc3ccccc3)c3ccccc32)O1 (stereo not drawn)
→ 100	108	3	2
> O=C(ON1C(=O)CCC1=O)c1ccc(Br)o1
→ 98	102	-4	7
> OCCN1CCN(CC2CC=CCC2)CC1 (stereo not drawn)
→ 101	103	-5	11
> Cc1nc2ccccc2c2c1C(=O)NC2=O
→ 102	102	-5	-7
> N=C(N)n1nc(-c2ccccc2)cc1N
→ 101	100	-2	-99
> CN1C(=O)[C@]23CC4=CC=C[C@H](O)[C@H]4N2C(=O)[C@@]1(CO)[S+](C)S3 (stereo partly drawn)
→ 102	102	/	-4
> Cc1nn(-c2ccccc2)c2c1C(C(F)(F)F)(C(F)(F)F)C(C#N)=C(N)O2
→ 107	112	/	-5
> O=S(=O)(Nc1ccccc1CO)c1ccc(F)cc1
→ 105	108	-12	/
